Screening data: PubChem BioAssay, National Center for Advancing Translational Sciences (NCATS)
Cruzain inh noDet: inhibitors of Trypanosoma cruzi cruzain without detergent; purified cruzain, Z-FR-AMC fluorescence, no detergent; AID 1476; Potency, µM, for the others: max response, negative = inhibition, actives largely listed as inhibitors; 200,000 tested, 2.3% active;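 also: plate controls were enzyme without inhibitor for no effect and buffer without enzyme for full effect; nearly all actives have a fitted effect of over 40% in size; top concentration of the series not given in the record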
Target sequence (P25779 123-467 limits assumed): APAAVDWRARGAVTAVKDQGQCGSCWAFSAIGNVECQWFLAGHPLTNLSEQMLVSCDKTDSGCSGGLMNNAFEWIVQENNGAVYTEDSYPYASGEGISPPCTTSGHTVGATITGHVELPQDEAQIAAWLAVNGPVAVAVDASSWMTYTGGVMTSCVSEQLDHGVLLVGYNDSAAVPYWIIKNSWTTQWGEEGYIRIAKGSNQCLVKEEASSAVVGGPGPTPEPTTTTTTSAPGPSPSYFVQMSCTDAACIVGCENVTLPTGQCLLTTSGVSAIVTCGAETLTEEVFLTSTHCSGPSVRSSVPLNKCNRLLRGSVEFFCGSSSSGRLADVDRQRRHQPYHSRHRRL
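Detergent-free condition (0.00005% Triton X-100) in acetate buffer pH 5.5 with DTT. 1.5 nM enzyme and compound were pre-mixed 15 min, then 2 uM Z-FR-AMC substrate added; reaction progress from fluorescence change between first and third reads (60 s).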
2A StopGo: FMDV 2A StopGo reporter, luciferase signal | AID 1159524 | 410,000 tested, 1.2% active | Potency, µM (titrated, usually from 57.9 µM), inactives show top-dose signal change, negative = less light | human cells with a luciferase reporter of 2A StopGo recoding; control for the full effect not named in the record; active = well fitted falling curve with a large enough effect; inconclusive = small, poorly fitted or top-dose-only effect; inactive = no such curve, though single readings can be large or run the other way; tested in HEK293T cells; also: % is scaled to controls: 0 for no effect and ±100 for the full control effect; nearly all actives have a fitted effect of over 45% in size; luciferase light after 4 h
Cruzain inh Det: cruzain (T. cruzi) inhibition with detergent. P25779. purified cruzain, Z-FR-AMC fluorescence, 0.01% Triton. Potency, µM, for the others: max response, negative = inhibition, most hits filed as inhibitors. 200,000 tested, 0.43% active. AID 1478;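 also: plate controls were neutral wells for no effect and buffer without enzyme for full effect; nearly all actives have a fitted effect of over 40% in size; top concentration of the series not given in the record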
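Cysteine protease activity tested under reducing, mildly acidic conditions (100 mM sodium acetate pH 5.5, 5 mM DTT) plus 0.01% Triton X-100. Cruzain 1.5 nM; substrate Z-FR-AMC 2 uM; 15 min compound preincubation at room temperature.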
SARS PLP yeast: inhibitors of SARS-CoV papain-like protease in yeast. AID 485353. S. cerevisiae expressing SARS-CoV PLpro, growth rescue; control for the full effect not named in the record. Potency, µM (highest dose often 32.9 µM), for the others: top-dose activity, positive = growth rescue. 330,000 tested, 0.19% active; active means well fitted rising curve with a large enough effect; inconclusive means small, poorly fitted or top-dose-only effect; inactive means no such curve, though single readings can be large or run the other way; also: 0% is about no effect; nearly all actives have a fitted effect of over 55% in size; growth read by luminescence after 48 h
NS1 inh: inhibitors of influenza NS1 protein function. S. cerevisiae slowed by influenza A NS1, growth recovery by OD600. Potency, µM (highest dose often 46.1 µM), for the others: at the highest dose activity, positive = more growth. 270,000 tested, 0.4% active. AID 2326; active means well fitted rising curve with a large enough effect; inconclusive means small, poorly fitted or top-dose-only effect; inactive means no such curve, though single readings can be large or run the other way; also: nearly all actives have a fitted effect of over 50% in size
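Read-out: OD600 growth recovery of NS1-expressing budding yeast. Cells grown overnight at 30C in -URA glucose medium, washed, resuspended and diluted 1:100 in 2% galactose assay medium, pH 6.0. Same strain lacking NS1 served as positive control.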
Lassa entry inh: inhibitors of Lassa virus binding or cell entry | Potency, µM (doses to about 37.9 µM), inactives show at the highest dose activity change, negative = inhibition, actives largely listed as inhibitors | 300,000 tested, 1.2% active | Lassa virus pseudotype entry inhibition, cell reporter; control for the full effect not named in the record; active means well fitted inhibition curve with a large enough effect; inconclusive means small, poorly fitted or top-dose-only effect, or effect the other way; inactive means flat fitted curve, though single readings scatter; tested in HEK293 cells; also: % is scaled to controls: 0 for no effect and ±100 for the full control effect; nearly all actives have a fitted effect of over 50% in size; luciferase read-out
Marburg entry inh: inhibitors of Marburg virus binding or cell entry | AID 540276 | Potency, µM (doses to about 37.8 µM), inactives show at the top dose activity change, negative = inhibition, actives largely listed as inhibitors | Marburg virus pseudotyped entry inhibition, cell reporter; control for the full effect not named in the record; about a third of the inactives were read at about 46 µM | 300,000 tested, 1.8% active; active = well fitted inhibition curve with a large enough effect; inconclusive = small, poorly fitted or top-dose-only effect, or effect the other way; inactive = flat fitted curve, though single readings scatter; tested in HEK293 cells; about a fifth of its hits are not listed in these tables; also: % is scaled to controls: 0 for no effect and ±100 for the full control effect; luciferase read-out
RE007 growth inh: less growth of the S. pombe RE007 Vpr strain | S. pombe RE007 Vpr strain, BacTiter-Glo ATP luminescence, 24 h; control for the full effect not named in the record | Potency, µM (series often up to 92.2 µM), inactives show at the highest dose activity change, negative = less growth | 360,000 tested, 0.21% active; active = well fitted falling curve with a large enough effect; inconclusive = small, poorly fitted or top-dose-only effect; inactive = no such curve, though single readings can be large or run the other way;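 also: % is scaled to controls: 0 for no effect and ±100 for the full control effect; nearly all actives have a fitted effect of over 50% in size; the assay follows cell death caused by Vpr and the record does not say whether a fall means rescue or toxicity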
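Fission yeast strain RE007, carrying one chromosomally integrated HIV-1 vpr copy, was seeded at OD 0.01 in PMG+AL medium with 23 nL pinned compound. After 24 h at 30 °C and 99% humidity, viability was read by BacTiter-Glo luminescence.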
* hit, by the source's call; ? = inconclusive; · = no result given; & = joins results of further samples; [ ] = remark or other dose. Unless noted, calls follow the shape of the dose curve; as a rule, active = well fitted curve in the direction sought with a large enough effect; inconclusive = small, poorly fitted or top-dose-only effect, or another doubt; inactive = no such curve, though single readings can be large; an effect the other way counts as inactive or inconclusive. Potency is read from the fitted curve at half-maximal effect.

The opening 10 compounds (preview)
Screens by letter – A = Cruzain inh noDet; B = 2A StopGo; C = Cruzain inh Det; D = SARS PLP yeast; E = NS1 inh; F = Lassa entry inh; G = Marburg entry inh; H = RE007 growth inh
> Cc1ccc(S(=O)(=O)N(C)C)cc1NC(=S)NC(=O)C12CC3CC(CC(C3)C1)C2
  A: -3% | B: ? | C: -4.3% | D: -12% | E: 5% | F: -17% | G: ? | H: 6%

> CCCCCCOc1ccc(C2C(=O)N(C3CCCCC3)CC(=O)N2C2CCCCC2)cc1 (stereo unspecified)
  A: -13% | B: -11% | C: 1.0% | D: · | E: · | F: 22%[46.1 µM] | G: · | H: ·

> Cc1cccc(NC(=S)NCCSc2ccc(Cl)cc2)c1
  A: · | B: 5% | C: · | D: -31% | E: · | F: 23% | G: ? | H: 6%

> CCN(CC)CCn1c2c(c(SCC(=O)Nc3ccc(C)c(F)c3)nc1=O)CCCC2
  A: · | B: -4% | C: · | D: 1% | E: · | F: -6% | G: -9% | H: -3%

> CC(C)[C@H](CO)N(Cc1cccc(F)c1)c1nc(Nc2cccc(Cl)c2)c2ncn(C(C)C)c2n1
  A: · | B: -9% | C: · | D: 2% | E: ? | F: · | G: · | H: 10%

> O=C(c1ccc2c(c1)N(Cc1ccc(F)cc1)C(=O)c1ccccc1S2)N1CCC2(CC1)OCCO2
  A: ? | B: 9% | C: -0.7% | D: · | E: · | F: ? | G: · | H: ·

> COc1cc2[nH]c(=O)n(CCCC(=O)NCc3ccc(Cl)cc3)c(=O)c2cc1OC
  A: -9% | B: 5% | C: 0.6% | D: · | E: · | F: -2%[46.1 µM] | G: -3%[46.1 µM] | H: ·

> COc1ccc(Cl)cc1NC(=S)NCc1ccc(S(N)(=O)=O)cc1
  A: -2% | B: -11% | C: -7.0% | D: 0% | E: -1% | F: 4% | G: ? | H: -5%

> COc1cc(-n2c(C)nc3cc(C(=O)NCCN4CCOCC4)ccc32)cc(OC)c1OC
  A: 2% | B: · | C: 0.8% | D: 5% | E: 1% | F: · | G: · | H: ·

> O=C(Nc1ncc(Cc2ccc(Cl)cc2Cl)s1)c1ccc([N+](=O)[O-])cc1
  A: ? | B: ? | C: -5.7% | D: -6% | E: 4% | F: 3% | G: ? | H: -9%

The listing, repeating the preview:
Screens by letter – A = Cruzain inh noDet; B = 2A StopGo; C = Cruzain inh Det; D = SARS PLP yeast; E = NS1 inh; F = Lassa entry inh; G = Marburg entry inh; H = RE007 growth inh
> Cc1ccc(S(=O)(=O)N(C)C)cc1NC(=S)NC(=O)C12CC3CC(CC(C3)C1)C2
  A: -3% | B: ? | C: -4.3% | D: -12% | E: 5% | F: -17% | G: ? | H: 6%

> CCCCCCOc1ccc(C2C(=O)N(C3CCCCC3)CC(=O)N2C2CCCCC2)cc1 (stereo unspecified)
  A: -13% | B: -11% | C: 1.0% | D: · | E: · | F: 22%[46.1 µM] | G: · | H: ·

> Cc1cccc(NC(=S)NCCSc2ccc(Cl)cc2)c1
  A: · | B: 5% | C: · | D: -31% | E: · | F: 23% | G: ? | H: 6%

> CCN(CC)CCn1c2c(c(SCC(=O)Nc3ccc(C)c(F)c3)nc1=O)CCCC2
  A: · | B: -4% | C: · | D: 1% | E: · | F: -6% | G: -9% | H: -3%

> CC(C)[C@H](CO)N(Cc1cccc(F)c1)c1nc(Nc2cccc(Cl)c2)c2ncn(C(C)C)c2n1
  A: · | B: -9% | C: · | D: 2% | E: ? | F: · | G: · | H: 10%

> O=C(c1ccc2c(c1)N(Cc1ccc(F)cc1)C(=O)c1ccccc1S2)N1CCC2(CC1)OCCO2
  A: ? | B: 9% | C: -0.7% | D: · | E: · | F: ? | G: · | H: ·

> COc1cc2[nH]c(=O)n(CCCC(=O)NCc3ccc(Cl)cc3)c(=O)c2cc1OC
  A: -9% | B: 5% | C: 0.6% | D: · | E: · | F: -2%[46.1 µM] | G: -3%[46.1 µM] | H: ·

> COc1ccc(Cl)cc1NC(=S)NCc1ccc(S(N)(=O)=O)cc1
  A: -2% | B: -11% | C: -7.0% | D: 0% | E: -1% | F: 4% | G: ? | H: -5%

> COc1cc(-n2c(C)nc3cc(C(=O)NCCN4CCOCC4)ccc32)cc(OC)c1OC
  A: 2% | B: · | C: 0.8% | D: 5% | E: 1% | F: · | G: · | H: ·

> O=C(Nc1ncc(Cc2ccc(Cl)cc2Cl)s1)c1ccc([N+](=O)[O-])cc1
  A: ? | B: ? | C: -5.7% | D: -6% | E: 4% | F: 3% | G: ? | H: -9%

Already shown: an excerpt of the list.
Screens by letter – A = Cruzain inh noDet; B = 2A StopGo; C = Cruzain inh Det; D = SARS PLP yeast; E = NS1 inh; F = Lassa entry inh; G = Marburg entry inh; H = RE007 growth inh
> Cc1ccc(S(=O)(=O)N(C)C)cc1NC(=S)NC(=O)C12CC3CC(CC(C3)C1)C2
  A: -3% | B: ? | C: -4.3% | D: -12% | E: 5% | F: -17% | G: ? | H: 6%

> CCCCCCOc1ccc(C2C(=O)N(C3CCCCC3)CC(=O)N2C2CCCCC2)cc1 (stereo unspecified)
  A: -13% | B: -11% | C: 1.0% | D: · | E: · | F: 22%[46.1 µM] | G: · | H: ·

The listing continues:
Screens by letter – A = Cruzain inh noDet; B = 2A StopGo; C = Cruzain inh Det; D = SARS PLP yeast; E = NS1 inh; F = Lassa entry inh; G = Marburg entry inh; H = RE007 growth inh
> COc1ccc(NC(=O)/C(=C\c2ccccc2)NC(=O)c2ccco2)cc1
  A: · | B: 18% | C: · | D: -3% | E: 4% | F: · | G: -2%[46.1 µM] | H: 0%

> CC(=O)Nc1ccc(Nc2ncc([N+](=O)[O-])c(Nc3ccc(NC(C)=O)cc3)n2)cc1
  A: 7% | B: -8% | C: 0.5% | D: -3% | E: -1% | F: 0% | G: -26% | H: 17%

> COc1ccc(-c2nnc(SCC(=O)NC(C)C)n2CC2CCCO2)cc1OC (stereo unspecified)
  A: -1% | B: 5% | C: 0.1% | D: 6% | E: 4% | F: 14% | G: 6% | H: -3%

> CCCc1nc(SCC(=O)N2CCCC2)c2c(=O)n(C)c(=O)n(C)c2n1
  A: · | B: -3% | C: · | D: 19% | E: 9% | F: · | G: · | H: 10%

> O=S(=O)(N1CCOCC1)n1c(Cc2ccccc2)nc2ccccc21
  A: 1% | B: · | C: 1.4% | D: -2% | E: -32% | F: 11% | G: -1% | H: -2%

> CC(=C\C(=O)O)/C(=C/c1ccccc1)C(=O)O
  A: 2% | B: -10% | C: 1.6% | D: -9% | E: -70% | F: 1% | G: 8%[46.1 µM] | H: -8%

> COC(=O)c1ccc(CN2CCC(Oc3ccc(C(=O)N4CCCCC4)cc3)CC2)cc1
  A: · | B: -9% | C: · | D: · | E: · | F: -19% | G: ? | H: -17%

> CN(C)c1ccnc2c[cH-]cc12.[Fe].c1ccc(-[c-]2[c-](-c3ccccc3)[c-](-c3ccccc3)[c-](-c3ccccc3)[c-]2-c2ccccc2)cc1 (stereo unspecified)
  A: · | B: ? | C: · | D: -4%&-3% | E: -3%&8% | F: · | G: · | H: 6%&4%

> CCOC(=O)CN1NC2(CCCC(C)C2)NC1=S (stereo unspecified)
  A: -2% | B: 12% | C: -3.7% | D: 9% | E: 7% | F: 1% | G: ? | H: -1%

> COc1cc(NC(=S)Nc2cccnc2)cc(OC)c1OC
  A: 4% | B: · | C: -0.7% | D: 0% | E: 18% | F: -1% | G: ? | H: -11%

> N#CCC1c2ccccc2CCN1C(=O)Nc1cccc(C(F)(F)F)c1 (stereo unspecified)
  A: 2% | B: -62% | C: -5.3% | D: 12% | E: 7% | F: 1% | G: 4% | H: 2%

> CC(C)(C)NS(=O)(=O)c1ccc(CCC(=O)NCc2ccc3c(c2)OCO3)cc1
  A: 4% | B: -13% | C: 0.0% | D: -7% | E: -7% | F: 2% | G: 19% | H: 0%

> COc1ccc(-c2nc3ccccc3c(=O)[nH]2)cc1
  A: · | B: 17% | C: · | D: -1% | E: -17% | F: ? | G: 13µM* | H: -16%

> Cc1c(Cl)cccc1Nc1nn2c(=O)c3ccc(C(=O)NCCc4ccccc4)cc3nc2s1
  A: -6% | B: -16% | C: -1.8% | D: · | E: · | F: 4%[46.1 µM] | G: · | H: ·

> CCC(C)(C)n1nnnc1C(c1ccc2ncccc2c1)N1CCN(Cc2ccc3c(c2)OCO3)CC1 (stereo unspecified)
  A: -1% | B: · | C: 4.4% | D: 5% | E: -2% | F: ? | G: ? | H: -11%

> COc1ccc(OC(C)C(=O)Nc2ccc(F)cc2F)cc1 (stereo unspecified)
  A: · | B: -17% | C: · | D: -3% | E: -8% | F: 10% | G: ? | H: 23%

> O=S(=O)(Nc1ccc(-c2csc(-c3ccccc3)n2)cc1)c1ccc(F)cc1
  A: ? | B: 13% | C: 1.9% | D: -33% | E: -6% | F: -13% | G: -25% | H: -18%

> CCOc1ccc(NC(=O)CSC2=C(C#N)C(c3ccc4c(c3)OCO4)CC(=O)N2)cc1 (stereo unspecified)
  A: 9% | B: 0% | C: -7.2% | D: -1% | E: 15% | F: -29% | G: 5%[46.1 µM] | H: 1%
